TRPML1 ag: activates the human TRPML1 channel; activation, % (test concentration not listed); 0.12% of 410,000 active; TRPML1-expressing cells, Ca2+ dye fluorescence, FDSS; host cell line not named in the record; reference of the full effect not given here; Q9GZU1; in the data active = activation above about 50%; inconclusive = about 30% to 50%; inactive = below about 30%; further: 0% is about no effect; the text of the record puts the active cut at 80%
Target sequence (Q9GZU1 whole entry, looked up): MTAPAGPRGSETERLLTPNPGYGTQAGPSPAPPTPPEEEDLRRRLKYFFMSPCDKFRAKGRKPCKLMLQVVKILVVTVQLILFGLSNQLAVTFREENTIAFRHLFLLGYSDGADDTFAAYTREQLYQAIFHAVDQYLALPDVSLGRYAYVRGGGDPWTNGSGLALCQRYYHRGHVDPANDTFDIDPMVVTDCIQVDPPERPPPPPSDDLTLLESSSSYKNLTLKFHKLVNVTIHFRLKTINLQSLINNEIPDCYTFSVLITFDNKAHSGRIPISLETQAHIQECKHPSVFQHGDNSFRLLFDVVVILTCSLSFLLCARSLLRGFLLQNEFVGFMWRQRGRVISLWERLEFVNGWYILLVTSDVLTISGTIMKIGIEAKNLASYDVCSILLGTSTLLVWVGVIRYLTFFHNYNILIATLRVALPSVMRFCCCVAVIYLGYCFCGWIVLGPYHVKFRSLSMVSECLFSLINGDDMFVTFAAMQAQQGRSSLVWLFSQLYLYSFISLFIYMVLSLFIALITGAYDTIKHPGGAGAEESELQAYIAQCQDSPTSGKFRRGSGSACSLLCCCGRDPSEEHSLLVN
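In this qHTS format, compounds were pin-transferred onto Ca8-dye-loaded TRPML1-DL cells induced with Tet overnight, and intracellular Ca2+ fluorescence was recorded kinetically for 110 s after a 10 s baseline. A subsequent 4uM final 54-4 (EC80) addition followed by a second 110 s read served as the antagonist phase.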
Menin MLL FP FL: menin-MLL binding inhibition, fluorescein peptide. Fluorescence polarization, fluorescein-MLL peptide displacement from menin. FP activity change, % at 61.4 µM. 290,000 tested, under 10 active. AID 1766; inconclusive = falling polarisation curve, or a change in total fluorescence; inactive = total fluorescence flat and polarisation flat or rising; no compound was filed as active; the % refers to the polarisation; negative = inhibition;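 further: % of control where 0% means no effect; inhibitors lower the polarisation; unlabelled MLL peptide was the positive control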
gsp ag: gsp mutant agonism. 0.13% of 340,000 active. Potency, µM (highest dose often 76.9 µM), for the others: at the highest dose activation (cAMP increase), usual class: activators. AID 624287. gsp mutant cells, cAMP HTRF, 30 min; control for the full effect not named in the record; active = well fitted activation curve with a large enough effect; inconclusive = small, poorly fitted or top-dose-only effect, or another doubt; inactive = no such curve, though single readings can be large or run the other way; cell line not stated here;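 further: phosphodiesterase inhibitor Ro 20-1724 added with compounds to block cAMP breakdown; potency means the concentration at half of the fitted maximal effect; nearly all actives have a fitted effect of over 60% in size; about a fifth of the inactives were tested at one dose only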
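Cells stably selected in G418 were plated at 2000/well, grown 16-24 hr, then given compounds in DMSO with the PDE inhibitor […] (300 uM solution added) for 30 min at 37C; cAMP was read by HTRF.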
ClpP mod: qHTS Assay for Activators of ClpP; ATP-dependent Clp protease proteolytic subunit (Bacillus subtilis (strain 168)), P80244; purified B. subtilis ClpP, FRET peptide cleavage, 20 min; Potency, µM (highest dose often 57.5 µM), without a hit: at the highest dose activity change, negative = active; 1.9% of 340,000 active; active = well fitted falling curve with a large enough effect; inconclusive = small, poorly fitted or top-dose-only effect; inactive = no such curve, though single readings can be large or run the other way; further: potency means the concentration at half of the fitted maximal effect; the source files actives as falling curves though it sought activators and does not explain the sign; nearly all actives have a fitted effect of over 65% in size; many hits overshoot -100%
Target sequence (P80244 whole entry, looked up): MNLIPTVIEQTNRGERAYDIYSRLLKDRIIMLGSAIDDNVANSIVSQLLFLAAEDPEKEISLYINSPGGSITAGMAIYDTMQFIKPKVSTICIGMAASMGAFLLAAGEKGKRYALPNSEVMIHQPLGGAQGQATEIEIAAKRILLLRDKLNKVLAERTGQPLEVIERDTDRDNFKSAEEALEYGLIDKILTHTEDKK
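ClpP 10 microg/mL final, pH 8 Tris/KCl buffer with BSA, glycerol, Tween-20; compound pinned in; FRET-FV substrate; RT 20 min; Ex320/Em430; ΔFRET vs ADEP 5.8 microM, DMSO, no enzyme.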
gsp antagonist: gsp mutant antagonism | 0.4% of 340,000 active | Potency, µM (titrated, usually from 76.9 µM), for inactives: at the highest dose activity change, negative = inhibition, most hits filed as inhibitors | gsp-mutant cells, cAMP HTRF, 30 min; control for the full effect not named in the record | AID 624288; active = falling curve of any shape with a large fitted effect; inconclusive = falling curve, mostly with a smaller effect; inactive = flat or rising curve; cell line not stated here;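 further: intracellular cAMP measured with PDE inhibitor Ro 20-1724 present during compound exposure; potency means the concentration at half of the fitted maximal effect; on the % scale 0 is the no-effect control and ±100 the full control effect; nearly all actives have a fitted effect of over 65% in size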
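HTRF cAMP measurement after 30 min RT detection following 30 min, 37C compound treatment alongside […] (added as 300 uM solution) in G418-selected cells seeded at 2000/well and grown 16–24 h.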
TRPML1 blocker: inhibitors of human TRPML1 channel. Q9GZU1. TRPML1-inducible cells, Ca2+ dye fluorescence, FDSS; hits give low values; inhibition of EC80 agonist-evoked calcium signal. activity change, negative = inhibition, % (no concentration beside the values). 0.02% of 390,000 active. AID 624415; in the data active means activity change below about -50%; inconclusive means about -30% to -50%; inactive means above about -30%;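 further: stimulus is agonist 54-4 at its EC80 concentration; on the % scale 0 is the no-effect control and ±100 the full control effect; compound concentration not given in the record; the text of the record puts the active cut at -80%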
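Tet-induced TRPML1-DL cells loaded with Ca8 no-wash calcium dye were read kinetically on FDSS. Compound addition was followed by EC80 agonist 54-4 (4 uM final); inhibition was read over 110 s.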
The depositor's hits bear a star; u = inconclusive; x = no result given; [ ] = remark or other dose.

SMILES | TRPML1 ag | Menin MLL FP FL | gsp ag | ClpP mod | gsp antagonist | TRPML1 blocker
COc1ccc(CNC(=O)C(OC(=O)c2ccco2)c2ccccc2F)cc1 (configuration not stated) | -0.1 | -5.2 | -3.3% | 0.8% | -10.2% | -0.9
Cc1ccc(C(=O)NNS(=O)(=O)c2ccccc2[N+](=O)[O-])cc1 | -0.4 | -1.2 | -42.9%[inhibitor] | 0.2% | -5.1% | -9.2
COc1ccccc1-n1c(SCC(=O)NCc2ccc3c(c2)OCO3)nc2cc([N+](=O)[O-])ccc21 | -0.4 | 10.5 | -6.9%[15.4 µM] | 0.7% | u | 8.8
Oc1ccc(/C=N/n2c3ccccc3c3ccccc32)cc1 | -0.8 | 4.5 | -18.8% | -6.1% | -11.0% | -7.9
COc1ccc(C(=O)NCc2cnn(C)c2C)cc1OC1CCN(C(C)C)CC1 | 0.8 | -3.5 | 10.4%[15.4 µM] | -2.3% | 9.5% | -0.2
Cc1ccc(C)c(OCCC(=O)OCC(=O)NC2CC2)c1 | 1.4 | x | -9.8%[15.4 µM] | x | 5.1% | 5.4
CCCCNC(=O)CSc1nc2cc3c(cc2c(=O)n1Cc1ccco1)OCO3 | -0.1 | -0.8 | -1.9%[15.4 µM] | u | -13.1% | 11.7
CCCOc1cccc(-c2cc(C(=O)NN)c3ccccc3n2)c1 | 0.0 | 1.8 | 8.9% | -5.3% | 2.1% | 3.1
CC1(C(=O)NC2CCCC2)CCC(=O)N1CCC1=CCCCC1 (configuration not stated) | 0.6 | -0.6 | -40.7%[inhibitor] | -1.6% | 10.8% | -21.3
O=C(Nc1ccccc1Cl)OCC#CCOC(=O)Nc1ccccc1Cl | 1.0 | x | -17.8% | 0.4% | x | -3.0
Fc1cccc(F)c1/C=N/N1CCOCC1 | -0.4 | -1.2 | 5.1%[15.4 µM] | x | 10.3% | -7.5
Cc1ccc2nc(N(Cc3cccnc3)C(=O)CCc3ccccc3)sc2c1 | 1.5 | x | x | 2.6% | x | 17.6
CCOC(=O)/C=C/C(=O)OCc1csc(CC(=O)Nc2ccccc2C)n1 | -0.6 | x | 0.8% | 0.0% | -5.1% | 13.6
CCOc1cc(NC(=O)c2ccccn2)c(OCC)cc1NC(=O)c1ccc(OC)cc1 | 1.3 | 1.9 | 1.7%[15.4 µM] | x | -4.4% | 0.9
O=C(Cc1ccc(NC(=O)C2CCN(C(=O)C3CCC3)CC2)cc1)Nc1cccc(C(=O)N2CCCC2)c1 | -0.5 | x | x | 0.1% | -5.0% | 0.4
CCCCCCNC(=O)CCNC(=O)c1cc(OC)c(OC)c(OC)c1 | 0.1 | 1.4 | 9.0% | 0.7% | 7.0% | -1.7
CN(c1ccccc1)c1ncnc2c1cnn2C | 0.2 | x | x | 1.5% | x | 16.0
Cc1ccc([C@H]2N[C@]3(CCCN(Cc4ccco4)C3=O)[C@H]3C(=O)N(Cc4ccccc4)C(=O)[C@@H]23)cc1 | -0.4 | x | -36.3%[inhibitor] | -1.4% | x | -4.8
CC(C)c1nc2n(n1)C1(CCCCC1)[C@@H]1CCCC[C@@H]1N2 | 0.6 | x | x | 1.1% | x | -22.9
O=C(Nc1nc2c(F)cccc2s1)c1ccc(S(=O)(=O)N2CCOCC2)cc1 | 0.3 | x | x | -1.1% | x | 0.5
O=S(=O)(c1ccc(Cl)cc1)c1nnn2c1nc(NC1CCCC1)c1sccc12 | -0.2 | x | x | 25.1µM* | x | -5.8
N#CCSc1nc2c(c(=O)n1Cc1ccco1)C1(CCCC1)Cc1ccccc1-2 | 4.9 | 0.3 | -5.9% | -26.3% | -24.4% | -4.4
CC(N=c1ccccn1C(=O)Nc1cccc(C(F)(F)F)c1)c1ccco1 (configuration not stated) | 3.3 | -0.9 | 5.3% | -6.2% | -5.4% | 16.8
C[C@@H]1CN([C@@H](C)CO)C(=O)c2cc(NC(=O)CCC(F)(F)F)ccc2O[C@H]1CN(C)Cc1ccc(Cl)c(Cl)c1 | 0.8 | x | x | 1.5% | -19.8% | 5.4
COc1ccc(OC)c(NC(=O)C2(C)CCN2C(=O)Cc2ccccc2)c1 (configuration not stated) | 3.2 | x | x | 1.9% | x | 87.8
O=C1C(Br)=Cc2cccc3cccc1c23 | 5.9 | u | 1.3%[15.4 µM] | 1.4% | u | 0.7
CCCCN1C(=O)C(CC(=O)NCCCN(C)C)CC(C(=O)N(CC)CC)=C1C (configuration not stated) | -0.1 | x | 26.5% | 1.2% | x | -6.5
CNC(=S)N1CCN(c2ccccc2OC)CC1 | -1.1 | 2.3 | -2.9% | -4.3% | 6.5% | 2.6
O=C(NCc1ccccc1Cl)c1ccc(Cn2c(=O)c3cccn3c3cccnc32)cc1 | 7.2 | x | x | u | x | 14.1
OC(CN1C2=NCCCN2c2ccccc21)c1ccc2c(c1)OCO2 (configuration not stated) | 1.2 | 0.4 | 5.6% | -2.2% | 4.2% | -8.6
COc1cc(OC)cc(C(=O)N[C@H](C(=O)OCC(=O)NC(=O)c2cccn2C)C(C)C)c1 | 2.1 | 3.5 | -19.8% | -4.9% | -7.9% | -3.9
COc1ccc(-c2c(-c3cc(OC)cc(OC)c3)n(C)c3ccc(Br)cc23)cc1 | -0.7 | x | x | -24.9% | 0.4% | 9.5
Cc1nc([N+](=O)[O-])cn1CC(O)c1ccccc1 (configuration not stated) | 1.0 | -1.5 | 16.4% | x | 5.8% | 6.1
COc1ccc(Cl)cc1NC(=O)Nc1c[nH]c(=O)[nH]c1=O | 3.5 | x | x | -0.1% | x | 10.2
Nc1nc(NC2CCCC2)cc(=O)[nH]1 | -0.8 | x | 2.2%[15.4 µM] | 0.3% | 11.3% | 3.7
CSC1=NCCN1C(=O)c1cccs1 | -0.5 | -0.9 | -22.3% | 0.8% | -5.0% | -8.5
COc1ccc(Cl)cc1NC(=O)CN(C)CC(=O)Nc1ccc(S(N)(=O)=O)cc1 | 0.0 | 0.1 | -10.1% | x | 14.3% | 12.1
CCSc1nc2c(c(=O)[nH]c(=O)n2C)n1CC(O)COc1ccc(Cl)cc1 (configuration not stated) | 0.4 | x | x | -0.7% | x | -4.8
C=CCNC(=O)COc1ccc(Br)cc1Cl | 0.2 | 0.4 | 1.6% | -1.3% | -6.4% | 10.3
O=C(COC(=O)c1ccc[nH]c1=O)Nc1ccc(N2CCCCC2)cc1 | -0.5 | x | -69.1%[inhibitor] | 1.1% | -7.9% | 4.8
CC(C)NC(=O)Cn1nc(N2CCN(c3ccccc3)CC2)ccc1=O | 1.9 | x | x | -0.5% | x | 0.4
Cc1c2cnn(CC(=O)NCCCN3CC(C)CC(C)C3)c(=O)c2c(C)n1Cc1ccccc1Cl (configuration not stated) | -0.5 | -2.3 | -0.1% | -25.4% | 6.1% | 1.5
COc1cc(NC(=O)c2ccc(Br)o2)c(C(=O)O)cc1OC | -1.1 | -0.4 | -3.2% | -0.5% | -7.1% | 7.1
CCn1cc(/C=C(/C#N)S(=O)(=O)c2ccccc2)cn1 | 0.2 | 1.0 | -32.7%[inhibitor] | 0.8% | -1.3% | -2.6
O=C(CS(=O)(=O)c1cn(Cc2cccc(F)c2)c2ccccc12)N1CCOCC1 | -0.2 | 2.3 | -70.6%[inhibitor] | 5.1% | -2.9% | -13.7
COc1ccc(C2CC(c3ccccc3Br)=NN2c2ccc(S(N)(=O)=O)cc2)cc1 (configuration not stated) | -1.1 | x | x | 3.9% | -12.2% | 8.3
COC(=O)c1ccc2nc(-c3ccc(OC)c(OC)c3)c(Cc3ccccc3)n2c1 | 2.0 | x | x | 5.0% | x | 30.5
Cc1ccc(OCC(=O)Nc2cc(S(=O)(=O)N3CCOCC3)ccc2N2CCCC2)cc1 | 1.8 | x | 20.6% | -2.8% | -5.0% | 0.2
Cc1ccc2scc(N3CCCCC3C)c(=O)c2c1 (configuration not stated) | 0.9 | x | x | -9.0% | x | 0.4
Cc1cc(NC(=O)n2ncc3c(C)cccc32)ccc1Br | -0.9 | x | x | 0.9% | x | -5.2
COc1ccc(CCN2CC(C(=O)NCCCc3ccncc3)CCC2=O)cc1 (configuration not stated) | -0.4 | x | -44.6%[inhibitor] | -4.6% | x | -16.8
CCOC(=O)c1ccc(NC(=S)NCCc2ccccc2)cc1 | 1.0 | 2.1 | 11.0% | -11.8% | u | 3.4
O=S(=O)(Nc1nc2ccccc2nc1N1CCc2ccccc2C1)c1ccc(Br)cc1 | 0.5 | -13.9 | 0.4%[15.4 µM] | 0.7% | u | 23.8
Cc1ccc2c(CC(=O)N(CC3CCCO3)c3c(N)n(Cc4ccccc4)c(=O)[nH]c3=O)coc2c1 (configuration not stated) | 0.0 | x | -26.5% | -4.1% | -18.7% | 27.8
CCOC(=O)c1cc(NC(=O)c2ccc(C)cc2)c(=O)oc1-c1ccccc1 | 0.9 | 0.7 | -4.9% | -0.9% | 6.7% | -9.2
O=C(NCCc1ccccc1)c1ccc2nc(N3CCCCC3)sc2c1 | 2.1 | x | x | u | x | 5.7
CN(Cc1ccccc1)C(=O)c1cccc(NC(=O)Cc2ccc(NC(=O)C3CCCN(C(=O)c4ccccc4)C3)cc2)c1 (configuration not stated) | 1.1 | x | x | 0.4% | 6.0% | 7.3
COc1ccc(-n2ncc3c(NCC(C)C)ncnc32)cc1 | 1.2 | 1.4 | 26.5% | 31.6µM* | -4.7% | 17.0
CC(NC(=O)C1C2C=CC(C2)C1C(=O)O)c1ccccc1 (configuration not stated) | 0.4 | -0.7 | 7.3% | 1.2% | 8.1% | 15.6
Cc1ccc(C)c(C2NC(=O)c3ccccc3N2)c1 (configuration not stated) | -0.4 | -0.9 | -12.3% | 4.5% | 3.2% | -4.8

Of the compounds above, these contain a COOH group:
SMILES | TRPML1 ag | Menin MLL FP FL | gsp ag | ClpP mod | gsp antagonist | TRPML1 blocker
COc1cc(NC(=O)c2ccc(Br)o2)c(C(=O)O)cc1OC | -1.1 | -0.4 | -3.2% | -0.5% | -7.1% | 7.1
CC(NC(=O)C1C2C=CC(C2)C1C(=O)O)c1ccccc1 (configuration not stated) | 0.4 | -0.7 | 7.3% | 1.2% | 8.1% | 15.6

Continued:
SMILES | TRPML1 ag | Menin MLL FP FL | gsp ag | ClpP mod | gsp antagonist | TRPML1 blocker
CCn1c(=O)cc(OCC(=O)N2CCCC2)c2ccccc21 | 1.1 | 3.3 | -32.6%[inhibitor] | -6.2% | 3.6% | 10.2
COCCNC(=S)Nc1ccc(N2CCOCC2)c(S(=O)(=O)Nc2ccccc2OC)c1 | -0.2 | x | -4.0% | 3.7% | -5.1% | -4.3
Cc1csc(NC(=O)c2cc3c(s2)CCCC3)n1 | 0.0 | 8.9 | 7.5% | -6.9% | -7.7% | 16.2
Cc1nc(C(=O)NNC(=O)Nc2ccccc2)cs1 | -0.7 | 3.9 | 8.9%[15.4 µM] | -8.0% | 2.7% | -12.2

Source: PubChem
